Sa helicase inh: S. aureus DNA helicase inhibition. purified S. aureus helicase, fluorescence unwinding assay; about half of the hits fall short of the stated cut. inhibition, %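 (tested at about 80 µM)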. 120,000 compounds, 0.05% hits. AID 485395;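 active = both duplicates at 50% or more, or one of them with a favoured structure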;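 note: 0% = mean of negative control wells and 100% = mean of positive control wells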
MgrA DNA FP: S. aureus MgrA-DNA binding modulation; fluorescence polarization; inhibition, %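 (about 10 µg/mL by stock and volumes)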; 84,000 compounds, 0.13% hits; AID 602314;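 active = above 50% in either of two replicates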;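 note: 0% = protein plus DNA without compound and 100% = DNA alone without protein; higher means less MgrA bound to DNA so lower polarization; one replicate is shown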
An asterisk follows results filed as active; nt = no result given.

entry	canonical_smiles	Sa helicase inh	MgrA DNA FP
1	CC(C)Cn1c(=O)c2sccc2n2c(CCCC(=O)NC3CCCCCC3)nnc12	16	6.2
2	O=C(NC1Cc2ccccc2C1)c1ccccc1	nt	-1.8
3	Cc1n[nH]c(C)c1Sc1n[nH]c(=O)[nH]c1=O	8	nt
4	COc1ccc(-c2c3c(nc4sc(C(=O)N5CCOCC5)c(N)c24)CC(C)(C)CC3=O)cc1	3	nt
5	CC1CN(S(=O)(=O)c2ccc(C(=O)N=c3sc4cccc(Cl)c4n3C)cc2)CC(C)O1 (stereo not given)	4	-1.8
6	S=C(NCc1cccs1)Nc1ccccc1	7	0.9
7	O=C(COc1ccccc1)Oc1ccccc1	11	6.8
8	CCCc1cc(=O)oc2c(CN3CCCC3)c(O)ccc12	10	nt
9	O=C(COC(=O)C(Cc1ccccc1)N1C(=O)c2ccccc2C1=O)Nc1ccc2[nH]c(=O)[nH]c2c1 (stereo not given)	18	nt
10	Cc1ccccc1N(Cc1nnc2n1CCCCC2)C(=O)Nc1ccc(F)cc1	29	nt
11	Cc1cc(C)cc(-n2ncc3c(OCC(=O)N4CCCCC4)ncnc32)c1	0	nt
12	COc1ccc(/C=C/C(=O)Nc2ccc(C)cc2C)cc1	5	-1.6
13	COc1ccc(C(=O)OCC(N)=O)cc1	-13	-2.1
14	CC(C)(C)C(=O)Nc1ccc(Br)cc1	nt	-1.5
15	O=C(NCc1ccc(-n2cccn2)cc1)c1cc(F)cc2c1OCOC2	nt	-1.4
16	O=C(NCCN1CCCc2ccccc21)Nc1cccc2c1CCCC2	11	nt
17	COc1cc(-c2ccc(N=Nc3ccc4c(S(=O)(=O)O)cc(S(=O)(=O)O)c(N)c4c3O)c(OC)c2)ccc1N=Nc1ccc2c(S(=O)(=O)O)cc(S(=O)(=O)O)c(N)c2c1O	nt	27
18	CCc1ccc(C2CC(=O)NC(NC(=O)c3ccccc3)=N2)cc1 (stereo not given)	-22	nt
19	CC(C)(C)C(=O)N(Cc1ccc(Cl)cc1)Cc1cccnc1	nt	-0.2
20	COc1ccc2c(c1)c(=O)c1ccoc1n2C	8	nt

Quoted from the listing:
Reading for entry 18 in Sa helicase inh: -22
Reading for entry 20 in Sa helicase inh: 8
Reading for entry 14 in MgrA DNA FP: -1.5
Reading for entry 15 in MgrA DNA FP: -1.4
Reading for entry 13 in Sa helicase inh: -13
Reading for entry 17 in MgrA DNA FP: 27

Next part:
entry	canonical_smiles	Sa helicase inh	MgrA DNA FP
21	COc1cc(C2NC(=O)NC(C)=C2C(=O)OC2CCCCC2)cc(Br)c1O (stereo not given)	nt	3.6
22	COCCN(Cc1ccc(C)c(Br)c1)S(=O)(=O)c1c[nH]c(C(=O)OC)c1	-1	nt
23	CCOC(=O)c1cnn(C(=O)c2c(C)nc3ccccn23)c1N	nt	-0.7
24	CNCC(=O)N1CCOCC1	8	nt
25	CCc1c(O)nc2sc3cc(OC)ccc3n2c1=O	nt	-3.8
26	c1ccc(-c2nnc(OCC3CCCO3)c3ccccc23)cc1 (stereo not given)	4	-1.1
27	Cc1ccc(-c2nc(-c3ccccc3)no2)cc1	-1	-1.3
28	CC(C)(C)N1CC(OC(=O)CCC(=O)O)C1	-20	-0.1
29	N#CCCSc1nnc(-c2ccc(Br)cc2)n1CCc1ccccc1	-17	nt
30	CCc1ccc2nc(Nc3nc4ccccc4c(=O)[nH]3)nc(C)c2c1	-1	0.5
31	Cc1ccc2nc(Nc3ccc4[nH]c(=O)[nH]c4c3)c(-n3nc(C)cc3C)nc2c1	7	nt
32	CCCCn1c(SCC(=O)N2CCCC2)nc2ccccc2c1=O	10	1.5
33	O=C(CSc1ncn[nH]1)N1c2ccccc2CCc2ccccc21	17	nt
34	C(CCC=C(c1ccccc1)c1ccccc1)=C(c1ccccc1)c1ccccc1	nt	-1.1
35	CC(C)(C)NCC(O)COc1ccc(Br)cc1 (stereo not given)	4	nt
36	CSc1nsc(SC)c1-c1nn[nH]n1	4	nt
37	O=C(Cn1cncn1)c1ccc(Cl)cc1	nt	-2.2
38	CC12CN(C(=O)c3ccccc3)CC(C)(CN(C(=O)c3ccccc3)C1)C2	23	nt
39	O=C(NCC1CCCC(CNC(=O)Nc2ccc3c(c2)OCO3)C1)Nc1ccc2c(c1)OCO2 (stereo not given)	8	nt
40	O=c1c(C=NCCc2ccccc2)c(NCCc2ccccc2)nc2ccccn12	3	0.3

Retrieved by structure from above (5):
entry	canonical_smiles	Sa helicase inh	MgrA DNA FP
37	O=C(Cn1cncn1)c1ccc(Cl)cc1	nt	-2.2
32	CCCCn1c(SCC(=O)N2CCCC2)nc2ccccc2c1=O	10	1.5
36	CSc1nsc(SC)c1-c1nn[nH]n1	4	nt
38	CC12CN(C(=O)c3ccccc3)CC(C)(CN(C(=O)c3ccccc3)C1)C2	23	nt
40	O=c1c(C=NCCc2ccccc2)c(NCCc2ccccc2)nc2ccccn12	3	0.3

(listing goes on)
entry	canonical_smiles	Sa helicase inh	MgrA DNA FP
41	COc1ncnc2c1cnn2C	nt	3.2
42	COc1ccc(-c2cc(C(F)(F)F)n3nc(C(=O)NCCN4CCOCC4)cc3n2)cc1	8	-1.1
43	CC(=O)n1c(C#N)c(O)c2ccccc21	7	0.3
44	COc1ccc(CCn2c(=O)c3cc4c(=O)n(CCc5ccc(OC)c(OC)c5)c(=O)c4cc3c2=O)cc1OC	nt	-11
45	CC(=O)Nc1nnc(CCS(=O)(=O)c2ccc3ccccc3c2)s1	12	nt
46	O=C(Oc1ccc(F)cc1)c1nsc(Cl)c1Cl	-1	0.7
47	Cc1ccc(NC(=O)Cn2c(=O)oc3cc(S(=O)(=O)NC4CCCC4)ccc32)cc1	-1	-1.5
48	Cc1cc(C)c(C#N)c(SCc2cccnc2)n1	5	0.2
49	O=C(/C=C/N1CCOCC1)c1csc(-c2ccc(C(F)(F)F)cc2)n1	nt	1.2
50	O=C(CSc1ccc(Cl)cc1)NC1Cc2ccccc2C1	nt	0.0

Continuation.
cpd	molecule	Sa helicase inh	MgrA DNA FP
51	Nc1nnc(CCc2ccccc2)c(=O)n1N	-3	nt
52	CCNC(=O)c1c(C)[nH]c(C(=O)OCC)c1C	8	-0.7
53	Cc1onc(-c2ccccc2)c1C(=O)N1CCOCC1	2	-2.1
54	O=C(CCN1CCOCC1)Nc1ccc(Cl)cc1	-7	-0.5
55	Cc1ccc(-c2noc(CNC(=O)CC3CCCCC3)n2)cc1	7	1.1
56	COCCn1c(C)cc(/C=C(\C#N)C(=O)C(C)(C)C)c1C	-10	nt
57	O=C(N=Nc1c(O)[nH]c2ccccc12)C1C2CCCCC21 (stereo not given)	12	2.8
58	COC(=O)/C=c1/sc2n(c1=O)C(C)=CC(C)(C)N=2	7	-5.9
59	O=C(NCc1ccccc1)C1CCN(S(=O)(=O)N2CCCCCC2)CC1	6	0.8
60	O=c1c(-c2ccccn2)coc2cc(O)ccc12	-1	nt
61	CC1CN(c2nc3ccccc3nc2SCC(=O)Nc2ccc(F)cc2)CC(C)O1 (stereo not given)	24	nt
62	CC(O)c1ccc(Oc2ccc(C(C)O)cc2)cc1 (stereo not given)	15	5.4
63	Cc1cccc(NS(=O)(=O)c2ccc(C)c(C(=O)NN3CCN(C)CC3)c2)c1	-6	nt
64	CC(C)c1ccc(OCc2nnc(SCC(=O)NC3CCCCC3C)o2)cc1 (stereo not given)	0	-0.7
65	CCOc1ccc2cc(C3CC(c4ccc(OC)cc4)=NN3)c(Cl)nc2c1 (stereo not given)	nt	-4.2
66	N#Cc1c(N)nc(SCc2ccccc2)c(C#N)c1-c1ccccc1	10	nt
67	COc1cc(N2C(=O)c3ccccc3C2=O)c(Cl)cc1C(=O)OCC(=O)N1CCCC1	-5	nt
68	Cc1ccccc1N1CCN(C(=S)c2ccc(N(C)C)cc2)CC1	16	nt
69	N#Cc1cc2c(=O)n3ccccc3nc2n(CCc2ccccc2)c1=O	17	1.7
70	CN(C(=O)Cn1c(=O)sc2ccccc21)c1nnc(SCc2ccccc2)s1	21	nt
71	O=C(NO)c1cccs1	12	1.6
72	O=C(Cn1cc(/C=C2\C(=O)NC(=O)N(Cc3ccccc3)C2=O)c2ccccc21)NCc1ccco1	-82	21
73	CN(C)CCOC(=O)C12CCC3CC(CC(C3)C1)C2	-8	nt
74	COc1cccc(N2C(=O)NC(=O)/C(=C\c3ccc(OC)c(Br)c3)C2=O)c1	nt	8.3
75	N/C(=N\OC(=O)COc1ccc(Cl)cc1Cl)c1ccncc1	32	nt
76	CCOC(=O)c1c(NC(=O)Cc2ccccc2)sc(C(=O)Nc2cc(C(F)(F)F)ccc2Cl)c1C	nt	-0.9
77	Cc1cc(=O)nc2c3ccccc3n(C(C)C(=O)N(C)Cc3ccccc3)n12 (stereo not given)	9	0.4
78	CCCS(=O)(=O)/C(C#N)=C/c1ccc(-c2ccc(OC)cc2)s1	nt	24
79	CCOc1ccccc1NC(=O)CN1C(=O)CSC(C)C1=O (stereo not given)	12	nt
80	CCCCn1c(CCC(=O)O)nc2cc(S(=O)(=O)N(C)C)ccc21	-4	nt
81	CCCCN(CC)S(=O)(=O)c1ccc2[nH]c(=O)cc(C(=O)NCCc3ccc(Cl)cc3)c2c1	9	1.0
82	COCCCN=C(c1ccco1)n1c(=S)nc(-c2ccco2)n(CCCOC)c1=S	7	nt
83	CCOC(=O)/C(C#N)=C1\NC(CO)C(c2ccccc2)O1 (stereo not given)	nt	-1.6
84	Cc1cccc(OCc2nnc(SCc3cc(=O)oc4ccc5ccccc5c34)o2)c1	-19	nt
85	CCC1(CC)C(=O)N(C)C(=O)NC1=Nc1ccccc1	3	-0.6
86	CC1CN(c2ccc([N+](=O)[O-])c(O)c2)CC(C)O1 (stereo not given)	nt	-2.8
87	O=C(NCc1ccco1)C(c1ccccc1)N(Cc1ccco1)C(=O)Cn1nnc2ccccc21 (stereo not given)	-3	0.9
88	CCCCC(NC(C)=O)C(=O)O (stereo not given)	nt	-0.9
89	C(=N\n1cnnc1)/C1CCCCC1	5	-0.3
90	Oc1ccc2c(c1)OCCO2	-8	nt
91	Cc1cc(=O)n(Cc2ccccc2Cl)c(O)c1C#N	6	nt
92	COc1ccc(C2=CC(c3ccc(C)o3)n3nnnc3N2)cc1OC (stereo not given)	1	nt
93	COc1ccc2c(c1)-c1nc(C)sc1CC2	0	-5.9
94	CC1(NC(=O)c2cn(-c3ccccc3)nc2-c2cccnc2)CCS(=O)(=O)C1 (stereo not given)	-7	nt
95	O=C1CCSc2c1cccc2C(=O)NCc1ccccc1	8	4.7
96	CCCCN1C(=O)c2ccc(Br)cc2C1=O	17	-2.4
97	Cc1ccc2c3c(ccc2n1)NC1=C(C(=O)CCC1)C3C1CC=CCC1 (stereo not given)	18	-1.1
98	COC(=O)c1cn(C(=O)COc2ccccc2Cl)c2ccccc12	-3	-2.5
99	CN(C(=O)COC(=O)C12CC3CC(CC(C3)C1)C2)C1CCS(=O)(=O)C1 (stereo not given)	-9	nt
100	COC(=O)C(C)Sc1nnc(-c2c[nH]c3ccccc23)n1-c1ccc(OC)cc1 (stereo not given)	16	-5.0
101	COc1cc(/C=C2/SC(=Nc3ccccc3Cl)NC2=O)cc(OC)c1	nt	-0.7
102	Nc1ccc(OCC2CCCO2)cc1 (stereo not given)	8	-0.9
103	O=C(Cc1ccccc1)N1CCNCC1	nt	0.3
104	c1ccc(C2=NNC(c3ccccc3)=NN2)cc1	10	-1.9
105	CCOC(=O)CN1CC23C=CC(O2)C(C(=O)O)C3C1=O (stereo not given)	17	nt
106	Cc1c(O)nc(SC2CC(=O)N(c3ccccc3)C2=O)[nH]c1=O (stereo not given)	22	-0.1
107	CC(C)CN1C(=O)/C(=C/C=C/c2ccccc2)SC1=S	-2	-0.2
108	O=C1CSC(=Nc2ccccc2)N1	-14	-4.5
109	COc1ccc(-c2cc(C(=O)N3CCN(C(c4ccccc4)c4ccccc4)CC3)no2)cc1	9	1.0
110	O=C(CCC(C(=O)O)N1C(=O)c2ccccc2C1=O)Nc1ccc2c(c1)COCO2 (stereo not given)	nt	-4.5

The results go on.
cpd	molecule	Sa helicase inh	MgrA DNA FP
111	Cn1c(N)cc(=O)n(C)c1=O	1	nt
112	N#Cc1cc2c(cc1C#N)N(Cc1ccccc1)CCN2Cc1ccccc1	7	0.5
113	COC(=O)c1ccc(NC(=O)COc2cccc3c2CCNC3=O)cc1	4	nt
114	COc1cc(CO)ccc1OCc1cc(Cl)cc2c1OCOC2	13	nt
115	C=CCN1C(=O)/C(=c2\sc3n(c2=O)C(c2ccc(Cl)cc2)C(C(=O)OCC)=C(C)N=3)c2ccccc21 (stereo not given)	nt	-0.2
116	Oc1ccc(N=Cc2c[nH]c3ccccc23)cc1	4	3.3
117	Cc1ccc(OCC(O)CN2CCC(C(N)=O)CC2)cc1C (stereo not given)	nt	-1.9
118	CCN(CC)CCOC(=O)c1ccc2nc(NC(=O)c3ccc(C(=O)OC)cc3)sc2c1	nt	-12
119	Cc1cccc(N2COc3ccc(Br)cc3C2)c1	-32	nt
120	CCOC(=O)c1ccc(-n2c(O)c(/C=N/N3CCOCC3)c3ccccc3c2=O)cc1	9	nt
121	Cc1cc(C)c(NC(=O)C2CC3c4ccccc4C2C2C=CC=CC32)c(C)c1 (stereo not given)	13	-4.0
122	COC(=S)NC(=O)/C=C/c1ccccc1	nt	0.6
123	FC(F)(F)c1cccc(Nc2ncnc3c2cnn3-c2ccccc2)c1	-12	nt
124	COc1ccccc1/C=C1\SC(=O)N(CCC(=O)N2c3ccccc3Sc3ccccc32)C1=O	1	3.0
125	OC(CN1CCN(c2ccc(C(F)(F)F)cn2)CC1)c1cc(-c2cc(Cl)cc(Cl)c2)no1 (stereo not given)	nt	-0.5
126	COC(=O)c1sc2nc(C)cc(C(F)(F)F)c2c1N	-14	-0.3

Entries shown so far containing a tert-butyl group:
cpd	molecule	Sa helicase inh	MgrA DNA FP
14	CC(C)(C)C(=O)Nc1ccc(Br)cc1	nt	-1.5
19	CC(C)(C)C(=O)N(Cc1ccc(Cl)cc1)Cc1cccnc1	nt	-0.2
28	CC(C)(C)N1CC(OC(=O)CCC(=O)O)C1	-20	-0.1
35	CC(C)(C)NCC(O)COc1ccc(Br)cc1 (stereo not given)	4	nt
56	COCCn1c(C)cc(/C=C(\C#N)C(=O)C(C)(C)C)c1C	-10	nt

Screening results from PubChem.

The list is partial. The share of hits here may be higher or lower than overall.
